# Bead autofluor = counter-screen for toxin protease inhibitors: compound fluorescence | compound autofluorescence counterscreen, microsphere flow cytometry; hits give high values | fluorescence intensity (concentration not given with the values) | 3.1% of 360,000 active;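 active = at least 3 SD above the mean of all compounds, about 16000 in these data; inconclusive = too few beads counted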;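 also: 100 nL of 1 mM stock went into each well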
# Sa RN4220 lethal = S. aureus RN4220 growth inhibition; OD600, 16 h; inhibition, % (test concentration not listed); 0.33% of 330,000 active; AID 1259311;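 active = z-score of -3 or lower and OD600 up to 0.18 on both plates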;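 also: plate controls were untreated cells for no effect and reference antibiotic for full effect; stock transfer was 100 nL into about 80 µL; one replicate is shown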
# Mtb hypoxia rep = reduces hypoxia-regulated biosensor signal in M. tuberculosis | M. tuberculosis hypoxia-regulated fluorescent reporter, fluorescence | 0.1% of 300,000 active | fluorescence inhibition, % (concentration not given with the values) | AID 1159583;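 active = 35 to 45% if threefold the growth effect, above 45% if 1.5-fold the growth effect; inactive = the rest, general growth blockers included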;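 also: wells of about 50 µL received 100 nL stock; 0% = vehicle wells and 100% = reference inhibitor wells; whole bacteria with a GFP reporter of the hypoxia response; strong numbers were not always called active; many hits fall short of the cut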
# PrP 5UTR inh = inhibition of PrP 5' UTR reporter expression | cell-based PrP 5' UTR mRNA reporter, plate reader | inhibition, % (concentration not given with the values) | 0.35% of 340,000 active | AID 488862;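 active = every replicate at 50% or more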;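 also: 0 = median of the neutral control wells; tested in H4 reporter cells; numbers are from one replicate; inactives centre near -14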
# ugtP null kill = kills S. aureus RN4220 lacking UgtP | 0.54% of 330,000 active | growth inhibition, % (test concentration not listed) | S. aureus RN4220 ugtP deletion, OD600 growth, 16 h; some inactives read as strong as hits;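 active = z-score under -3 and OD600 up to 0.15 on both plates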;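 also: plate controls were untreated wells for no effect and antibiotic for full effect; wells of about 80 µL received 100 nL stock; the first replicate is given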
# BJeLR lethal = kills HRASV12-expressing BJeLR cells; 0.17% of 300,000 active; BJeLR (HRASV12) viability, CellTiter-Glo ATP luminescence, 48 h; reference of the scale not given here; inhibition, % (test concentration not listed); AID 1554;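 active = replicate mean above 50%; inconclusive = above 50% but judged a plate artefact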;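 also: 50 nL library stock added to about 25 µL; numbers are from one replicate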
# Mtb hypoxia rep growth = further read-out of Mtb hypoxia rep, marked with its call; growth inhibition, %; measured here: M. tuberculosis growth (absorbance);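 0% = vehicle and 100% = reference antibiotic; read after six days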
# An asterisk follows results filed as active; ? = inconclusive; · = not tested or not shown.
SMILES,Bead autofluor,Sa RN4220 lethal,Mtb hypoxia rep,Mtb hypoxia rep growth,PrP 5UTR inh,ugtP null kill,BJeLR lethal
CSc1ccccc1OCc1cc(C(=O)N2CCC(c3ccncc3)CC2)no1,4391,·,·,·,4.9,·,5.7
CCN(CC)S(=O)(=O)c1cccc(C(=O)N/N=C/c2ccc([N+](=O)[O-])o2)c1,4201,·,·,·,-18.0,·,0.4
CCN(CC(=O)Nc1cccc(OC)c1)CC(=O)Nc1cccc2ccccc12,3663,2.9,4.9,5.3,0.2,-1.0,·
C[C@H]1CC2C3CC=C4C[C@@H](O)CC[C@]4(C)C3CC[C@]2(C)[C@H]1O (some centres undefined),3350,5.5,12.6,6.1,-19.8,19.8,·
CC(C)c1ccc(CN2C(=O)NC3(CCCCCC3)C2=O)cc1,5844,4.7,4.1,6.2,-10.5,6.3,-4.1
CC(C)[C@H](NC(=O)OCc1ccccc1)C(=O)OCC(=O)NCCc1ccccc1,6161,-3.6,5.0,-8.5,-4.8,5.0,2.9
O=C(CSc1nccn1-c1ccccc1)NO,6291,1.7,12.1,10.3,-19.5,-1.6,12.2
COc1ccc2c(c1)C1OCCC1C(c1ccco1)N2 (centres undefined),4702,3.9,4.2,7.6,-17.4,-9.2,8.5
CNC(=S)NC1CC2CCCC(C1)N2Cc1ccccc1OC (centres undefined),·,3.0,9.3,-2.5,-17.7,-6.0,6.6
Cc1cccc(NC(=O)CCN2C(=O)C3C4C=CC(C4)C3C2=O)c1 (centres undefined),7964,1.1,7.4,6.4,·,12.6,3.2
O=C(NC(=S)NCCO)c1sc2ccccc2c1Cl,?,4.6,11.3,3.5,-50.6,3.2,2.6
COc1cccc(C2CC(c3cccs3)=NN2S(C)(=O)=O)c1 (centres undefined),?,10.5,11.7,11.5,9.5,7.0,-4.0
CN(C)c1ccnc2sc3c(SCc4ccc(Cl)cc4)ncnc3c12,2630,15.0,5.4,2.7,-37.6,23.0,2.1
CCC(Sc1ncccc1C(=O)OC(C)C)C(=O)N1CCOCC1 (centres undefined),22945*,3.6,3.7,1.4,-5.8,12.8,-0.5
CC(C)N(Cc1ccco1)/N=C/c1c(O)n(Cc2ccccc2)c(=O)[nH]c1=O,?,1.4,6.8,-14.9,-25.3,6.5,-1.8
COc1ccccc1OC(C)C(=O)N1CCN(Cc2ccc3c(c2)OCO3)CC1 (centres undefined),4733,2.9,-7.5,-5.8,-6.6,0.6,-6.1
CCOC(=O)C1CCN(S(=O)(=O)c2c(C(=O)N3CCCCC3)c(C)n(C)c2C)CC1,5248,1.2,15.3,9.4,-10.7,6.1,-6.0
Cc1ccc(NC(=O)C2CCN(C(=O)N3CCOc4ccccc43)CC2)cc1,4437,-8.3,15.4,10.8,-12.7,-0.5,0.8
COc1ccc(CCNC(=O)c2nonc2N)cc1OC,20897*,-0.8,-4.5,-0.5,0.3,-6.4,6.7
Cc1ccc(NC(=O)c2ncn(CC(=O)NCc3ccccc3)n2)cc1C,3564,4.0,-12.8,0.6,-38.7,-2.7,·
CN(C)S(=O)(=O)Oc1ccsc1C(=O)Nc1ccc(Cl)c(Cl)c1,5089,-11.9,6.2,-2.2,7.0,-11.9,4.4
CCN(CC(=O)Nc1ccc(NC(C)=O)cc1)C(=O)c1c(C)nn(-c2ccc(F)cc2)c1Cl,8777,-0.7,9.7,9.8,-23.0,1.5,·
N#Cc1cccc(NC(=O)CSc2nnc(-c3n[nH]c4ccccc34)o2)c1,5000,·,·,·,-34.2,·,-1.4
Cc1cccc(-c2cccc(NC(=O)C3CCCN(Cc4cccnc4)C3)c2)c1 (centres undefined),5276,0.4,6.6,-3.4,12.2,16.6,-10.3
CN1C[C@@H]2C(c3ccc(C(F)(F)F)cc3)C3(c4ccc(C#N)cc4)CC2(C3)[C@H]1c1ccccc1 (some centres undefined),3339,·,·,·,-66.6,·,4.1
CC(=O)Nc1ccc(S(=O)(=O)NCCSc2ccccn2)cc1,4417,1.1,·,·,-19.2,-1.7,14.7
O=C(c1cc(COc2ccc(F)cc2F)on1)N1CC2C[C@@H]3CC1C[C@H](C2)C3,5554,2.8,3.3,3.9,-85.1,-2.4,-0.9
O=C(Nc1ccccn1)C1CCN(S(=O)(=O)c2ccc3ccccc3c2)CC1,5816,2.1,-1.2,8.8,-5.3,4.5,·
COC(=O)c1ccc(/C=C/C(=O)c2ccc(OC)c(OC)c2)cc1,3525,8.7,15.2,6.6,-20.3,2.6,1.5
Cc1cccc2nc(CSc3nc4[nH]ncc4c(=O)n3-c3cccc(Cl)c3)cc(=O)n12,10930,1.3,5.7,-4.4,-13.2,4.6,-2.1

# Full records, looked up by structure. Order of screens: Bead autofluor, Sa RN4220 lethal, Mtb hypoxia rep, Mtb hypoxia rep growth, PrP 5UTR inh, ugtP null kill, BJeLR lethal
# Record of CCN(CC)S(=O)(=O)c1cccc(C(=O)N/N=C/c2ccc([N+](=O)[O-])o2)c1 → 4201, ·, ·, ·, -18.0, ·, 0.4
# Record of CC(C)[C@H](NC(=O)OCc1ccccc1)C(=O)OCC(=O)NCCc1ccccc1 → 6161, -3.6, 5.0, -8.5, -4.8, 5.0, 2.9
# Record of O=C(Nc1ccccn1)C1CCN(S(=O)(=O)c2ccc3ccccc3c2)CC1 → 5816, 2.1, -1.2, 8.8, -5.3, 4.5, ·

# More structures
SMILES,Bead autofluor,Sa RN4220 lethal,Mtb hypoxia rep,Mtb hypoxia rep growth,PrP 5UTR inh,ugtP null kill,BJeLR lethal
CCc1nnc(NC(=O)C2CCC(CNc3c(N4CCC(C)CC4)c(=O)c3=O)CC2)s1 (centres undefined),6711,7.4,-10.9,-5.0,-25.3,12.7,12.7
CCOc1ccccc1N(CC(=O)Nc1ccc(OC)cc1)S(=O)(=O)c1ccccc1,3521,3.3,5.0,10.4,-5.2,1.5,-1.1
COc1ccc(C(C)=O)cc1CSc1nnc(Nc2c(C)cccc2C)s1,2257,-0.3,-5.5,3.8,-19.9,-7.2,5.8
CC(C)C(C)(C#N)NC(=O)CSc1nc2scc(-c3ccco3)c2c(=O)n1-c1ccccc1 (centres undefined),3972,-5.3,·,·,-0.2,16.3,1.5
COCC(C)n1c(C)cc(C(=O)COC(=O)CNC(=O)c2ccccc2)c1C (centres undefined),2230,2.9,-2.9,-6.9,-20.6,-0.8,-3.2
CCCCOc1ccccc1NC(=O)c1ccco1,2400,8.0,6.7,3.9,-15.3,-9.4,2.8
C=CCN1C(=O)C(CC(=O)Nc2ccccc2)SC1=Nc1nccs1 (centres undefined),·,1.0,2.0,2.6,·,-2.3,·
CCOc1ccc2ccccc2c1C=NNC(=O)c1ccc(C)nc1,·,5.9,16.2,4.1,·,13.8,·
O=C(Oc1ccc2c(c1)OCO2)c1ccc(F)cc1Cl,3950,11.0,20.9,7.8,-81.0,6.4,-15.7
CCn1cnc2scc(-c3ccc(C)c(C)c3)c2c1=O,2413,5.9,8.3,8.3,-15.7,4.3,-2.1

# Structures shown so far containing a cyano group:
SMILES,Bead autofluor,Sa RN4220 lethal,Mtb hypoxia rep,Mtb hypoxia rep growth,PrP 5UTR inh,ugtP null kill,BJeLR lethal
N#Cc1cccc(NC(=O)CSc2nnc(-c3n[nH]c4ccccc34)o2)c1,5000,·,·,·,-34.2,·,-1.4
CN1C[C@@H]2C(c3ccc(C(F)(F)F)cc3)C3(c4ccc(C#N)cc4)CC2(C3)[C@H]1c1ccccc1 (some centres undefined),3339,·,·,·,-66.6,·,4.1
CC(C)C(C)(C#N)NC(=O)CSc1nc2scc(-c3ccco3)c2c(=O)n1-c1ccccc1 (centres undefined),3972,-5.3,·,·,-0.2,16.3,1.5

# Next part
SMILES,Bead autofluor,Sa RN4220 lethal,Mtb hypoxia rep,Mtb hypoxia rep growth,PrP 5UTR inh,ugtP null kill,BJeLR lethal
COc1ccc(C(=O)C2CCN(CC(=O)Nc3ccccc3F)CC2)cc1,4720,2.8,3.1,0.2,-23.1,4.3,-9.8
CC(=O)Nc1ccc(S(=O)(=O)N2CCC3(CC2)OCCO3)cc1,8264,2.6,3.0,10.2,-6.6,3.4,-2.7
OC1CCCN(CC(O)c2ccccc2)C1 (centres undefined),4220,1.0,-1.3,4.6,-0.2,6.6,-7.5
COc1ccc(CCN2C(=O)CC(NNc3ccc([N+](=O)[O-])cc3)C2=O)cc1OC (centres undefined),4094,3.5,7.4,-1.5,-23.3,3.1,-1.9
CCOC(=O)c1sc2nc(C)nc(NC3CCC(O)CC3)c2c1C (centres undefined),4529,1.5,5.6,0.6,-8.5,8.4,3.7
O=C(NCC(=O)N(c1cnc2ccccc2c1)C(C(=O)NC1CCCC1)c1ccncc1)c1ccco1 (centres undefined),4401,1.0,6.8,6.3,-22.3,-4.5,-0.5
CCN(CC(=O)Nc1ccc(NC(C)=O)cc1)C(=O)c1c(-c2c(F)cccc2Cl)noc1C,?,-2.2,-5.1,10.7,-10.5,-4.1,2.9
Cc1nc(C(=O)O)nn1-c1ccc([N+](=O)[O-])cc1,2223,2.4,0.2,3.7,-12.9,4.7,0.3
CCOC(=O)CCSc1cc(C)c2ccccc2n1,4629,6.0,0.2,-1.7,-27.6,-3.4,-9.2
Nc1nc2ccc(Cl)cc2[nH]1,3349,0.5,23.0,15.4,-19.0,-1.2,·
O=S(=O)(N/N=C1/CC(c2ccccc2)Oc2ccccc21)c1ccc(Br)cc1 (centres undefined),?,·,·,·,-19.8,·,-0.6
CC(C)(C)c1cc(CCC(=O)N2CCCC2)cc(C(C)(C)C)c1O,4381,7.9,9.0,-10.2,-1.7,9.1,8.3
CCSC1=C(C#N)C2(CCCCC2)C(C#N)C(=O)N1 (centres undefined),20210*,8.1,3.4,11.7,-12.3,6.9,·
COc1cn(-c2ccccc2)nc1C(=O)NCc1ccccc1,4494,5.1,8.9,0.6,-4.1,-2.9,-11.3
CCN(CC(=O)Nc1ccc(OC)cc1)C(=O)c1cc(S(=O)(=O)N2CCOCC2)ccc1N1CCCC1,?,3.6,-0.3,-4.4,-14.2,7.3,-2.7
N#C/C(=C\c1c(N2CCC(C(N)=O)CC2)nc2ccccn2c1=O)S(=O)(=O)c1ccc(Cl)cc1,4428,1.0,1.9,6.4,-1.0,8.2,11.4
Cc1ccc(C)c(C(O)=C2C(=O)C(=O)N(CCCn3ccnc3)C2c2cccnc2)c1 (centres undefined),·,3.8,5.9,5.8,·,-0.3,·
CC(C)NS(=O)(=O)c1ccc(OCC(=O)NCc2ccccc2)cc1,6078,2.4,·,·,-3.0,-0.8,4.4
Cc1ccccc1CC1(CO)CCCN(Cc2c(C)nn(C)c2Cl)C1 (centres undefined),2350,3.9,8.5,-1.1,-7.7,1.5,1.4
Cc1cc(C)n(-c2cc(N3CCN(S(=O)(=O)c4ccc(Br)cc4)CC3)ccc2[N+](=O)[O-])n1,1993,3.2,-8.4,9.3,-16.1,-9.5,-25.6
CCc1c(C)c(C#N)c2nc3ccccc3n2c1-n1nc(C)cc1C,2048,2.0,3.7,5.4,-11.0,3.5,13.8
CCCn1cnc2sc(C(N)=O)c(C)c2c1=O,2940,0.0,·,·,-7.3,2.0,0.8
CC(=O)C1=C(O)C(=O)N(C)C1c1ccccc1F (centres undefined),2892,5.9,11.1,6.7,-2.1,3.2,3.7
O=C(CC1CC=CCC(Cc2ccc(F)cc2)C(=O)OCC(Cc2ccccc2)NC1=O)NC(CO)Cc1ccccc1 (centres undefined),·,10.9,6.9,5.4,·,5.9,·
Fc1ccc(-c2cn(-c3ccccc3)c3[n+]2CCS3)cc1,5448,1.4,7.5,5.9,-25.6,0.7,7.9
COc1ccc(C2C(C(=O)N3CCCC3)c3cc(OC)c(OC)cc3C(=O)N2C)cc1 (centres undefined),3083,1.0,7.9,4.1,-14.6,4.2,-4.8
Cc1ccc(C)c(NC(=S)NCCc2c[nH]c3ccccc23)c1,3368,-1.0,6.9,10.4,-11.1,-1.0,-0.7
Cc1ccc(-c2nc3ccccc3o2)cc1NC(=S)NC(=O)/C=C/c1ccco1,3676,6.2,·,·,-27.1,24.8,24.3
CCOC(=O)CSc1nnc(NC(=O)c2cccc(S(=O)(=O)N3CCCC3)c2)s1,7857,7.3,3.5,5.1,-17.0,5.7,-0.9
Cc1cc(OCC(=O)N(C)Cc2ccccc2)cc(C)c1Cl,4169,4.7,24.0,12.8,-25.6,-0.5,-7.4
CS(=O)(=O)N1CCC(C(=O)Nc2cccc(Br)c2)CC1,3823,6.6,11.2,-0.6,-8.3,14.6,-0.5
COc1ccc(N(CC(=O)NCC2CCCO2)C(=O)CCC(=O)Nc2cc(C)on2)cc1OC (centres undefined),4014,0.1,-8.8,4.6,-11.9,13.9,-4.2

# High-throughput results from PubChem BioAssay.
